CtBP-E1A blk – CtBP/E1A binding inhibition; AlphaScreen GST-E1A/His-CtBP binding, 1536-well; hits give low values; control for the full effect not named in the record; activity change, % (test concentration not listed); 0.49% of 340,000 active; in the data active means activity change below about -65%; inconclusive means about -30% to -65%; inactive means above about -30%; further: on the % scale 0 is the no-effect control and ±100 the full control effect; compound concentration not given in the record
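GST-E1A and His-tagged CtBP (125 nM each as 5X stock) were preincubated with pin-transferred compound for 2 h at 37 °C in the dark, then glutathione donor and nickel acceptor beads were added for 1 h before AlphaScreen reading.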
gsp antagonist – antagonists of gsp mutant (McCune-Albright syndrome); AID 624288; 0.4% of 340,000 active; gsp-mutant cells, cAMP HTRF, 30 min; control for the full effect not named in the record; Potency, µM (titrated, usually from 76.9 µM), without a hit: at the highest dose activity change, negative = inhibition, actives largely listed as inhibitors; active = falling curve of any shape with a large fitted effect; inconclusive = falling curve, mostly with a smaller effect; inactive = flat or rising curve; cell line not stated here;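 further: intracellular cAMP measured with PDE inhibitor Ro 20-1724 present during compound exposure; potency means the concentration at half of the fitted maximal effect; on the % scale 0 is the no-effect control and ±100 the full control effect; nearly all actives have a fitted effect of over 65% in size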
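Cells in G418 medium, seeded 16-24 h, 37C; buffer exchange to DPBS + 1 mM CaCl2, 0.5 mM MgCl2, 0.05% BSA; cpds in DMSO + […] (300 uM stock), 30 min 37C; HTRF cAMP detection.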
gsp agonist – activates gsp, the McCune-Albright syndrome mutation. 0.13% of 340,000 active. gsp mutant cells, cAMP HTRF, 30 min; control for the full effect not named in the record. Potency, µM (doses to about 76.9 µM), inactives show at the highest dose activation (cAMP increase), usual class: activators; active = well fitted activation curve with a large enough effect; inconclusive = small, poorly fitted or top-dose-only effect, or another doubt; inactive = no such curve, though single readings can be large or run the other way; cell line not stated here;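 further: phosphodiesterase inhibitor Ro 20-1724 added with compounds to block cAMP breakdown; potency means the concentration at half of the fitted maximal effect; nearly all actives have a fitted effect of over 60% in size; about a fifth of the inactives were tested at one dose only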
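Cells stably selected in G418 were plated at 2000/well, grown 16-24 hr, then given compounds in DMSO with the PDE inhibitor […] (300 uM solution added) for 30 min at 37C; cAMP was read by HTRF.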
Menin-MLL FL inh – menin-MLL binding inhibition, fluorescein peptide | Fluorescence polarization, fluorescein-MLL peptide displacement from menin | 290,000 tested, under 10 active | AID 1766 | FP activity change, % at 61.4 µM; inconclusive = falling polarisation curve, or a change in total fluorescence; inactive = total fluorescence flat and polarisation flat or rising; no compound was filed as active; the % refers to the polarisation; negative = inhibition;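 further: % of control where 0% means no effect; inhibitors lower the polarisation; unlabelled MLL peptide was the positive control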
Sfp PPTase inh – inhibitors of Bacillus subtilis Sfp phosphopantetheinyl transferase | Q9F4F7 | Biochemical Sfp PPTase activity, qHTS | Potency, µM, for the others: max response, negative = inhibition, hits mostly inhibitors | 3.5% of 310,000 active; active means well fitted inhibition curve with a large enough effect; inconclusive means small, poorly fitted or top-dose-only effect, or another doubt; inactive means no such curve, though single readings can be large or run the other way;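 further: the enzyme is Sfp with the accession as filed and its product quenches rhodamine fluorescence; potency means the concentration at half of the fitted maximal effect; 0% = enzyme reaction without inhibitor and -100% = no enzyme wells; top concentration of the series not given in the record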
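With Hepes-Na pH 7.6 buffer containing 10 mM MgCl2, Sfp (15 nM) modified BHQ-2-YbbR (12.5 uM) using rhodamine-CoA (5 uM). Two reads 30 minutes apart at 525/598 nm yielded each well's rate.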
ClpP mod – qHTS Assay for Activators of ClpP; purified B. subtilis ClpP, FRET peptide cleavage, 20 min; ATP-dependent Clp protease proteolytic subunit (Bacillus subtilis (strain 168)), P80244; 1.9% of 340,000 active; Potency, µM (series often up to 57.5 µM), inactives show at the top dose activity change, negative = active; active = well fitted falling curve with a large enough effect; inconclusive = small, poorly fitted or top-dose-only effect; inactive = no such curve, though single readings can be large or run the other way; further: potency means the concentration at half of the fitted maximal effect; the source files actives as falling curves though it sought activators and does not explain the sign; nearly all actives have a fitted effect of over 65% in size; many hits overshoot -100%
Target sequence (P80244 whole entry, looked up): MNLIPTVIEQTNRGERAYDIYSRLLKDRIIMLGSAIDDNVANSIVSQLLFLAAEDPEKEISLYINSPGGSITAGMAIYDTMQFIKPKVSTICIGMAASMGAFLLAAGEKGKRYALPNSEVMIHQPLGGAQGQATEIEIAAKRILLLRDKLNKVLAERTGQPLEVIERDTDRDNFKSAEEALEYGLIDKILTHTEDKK
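FRET quenching reversal measured ClpP activation: 10 microg/mL B. subtilis ClpP at pH 8 with the FRET-FV decapeptide, read at 430 nm after 320 nm excitation. The 20-min minus 0-min signal was scaled between DMSO/no-enzyme wells and ADEP (5.8 microM final).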
TRPV1 potentiator – enhances activation of the human vanilloid receptor TRPV1; Q8NER1; TRPV1-expressing cells, Fluo-8 calcium influx, capsaicin EC20 potentiation; host cell line not named in the record; control for the full effect not named in the record; potentiation, % at 8.33 µM; 0.02% of 320,000 active; active means potentiation above 80%; inconclusive means 30% to 80%; inactive means below 30%; further: 0% is about no effect
Target sequence (Q8NER1 whole entry, looked up): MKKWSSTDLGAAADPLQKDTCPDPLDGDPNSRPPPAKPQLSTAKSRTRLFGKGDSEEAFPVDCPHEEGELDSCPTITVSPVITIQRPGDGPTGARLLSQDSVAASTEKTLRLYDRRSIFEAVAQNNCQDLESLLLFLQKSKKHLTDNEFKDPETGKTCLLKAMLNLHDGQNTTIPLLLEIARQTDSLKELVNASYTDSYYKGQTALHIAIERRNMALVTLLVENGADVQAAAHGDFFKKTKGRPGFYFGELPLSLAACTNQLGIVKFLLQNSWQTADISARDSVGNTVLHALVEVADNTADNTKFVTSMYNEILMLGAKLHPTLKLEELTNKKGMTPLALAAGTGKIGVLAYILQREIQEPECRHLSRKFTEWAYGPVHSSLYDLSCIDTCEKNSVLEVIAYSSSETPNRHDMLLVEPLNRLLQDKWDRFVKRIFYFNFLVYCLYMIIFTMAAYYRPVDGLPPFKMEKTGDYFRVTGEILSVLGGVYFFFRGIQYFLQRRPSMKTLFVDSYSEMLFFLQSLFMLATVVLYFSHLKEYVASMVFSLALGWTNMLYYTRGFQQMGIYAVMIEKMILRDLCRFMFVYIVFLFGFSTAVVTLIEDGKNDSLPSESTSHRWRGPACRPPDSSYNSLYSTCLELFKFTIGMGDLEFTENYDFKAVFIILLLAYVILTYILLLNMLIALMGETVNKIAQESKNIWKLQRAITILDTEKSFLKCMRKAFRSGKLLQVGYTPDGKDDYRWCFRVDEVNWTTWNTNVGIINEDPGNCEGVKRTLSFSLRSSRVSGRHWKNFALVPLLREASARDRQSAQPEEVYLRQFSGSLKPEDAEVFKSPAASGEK
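TRPV1-expressing cells were cultured overnight at 35.5C and loaded with Fluo-8 calcium dye for 40 to 90 min at room temperature. After a 10 s baseline, compound was added and calcium influx was read kinetically for 3 min (ex 480/em 520 nm).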
An asterisk follows results filed as active; ? = inconclusive; · = not tested or not shown; [ ] = another dose, or the depositor's remark.

SMILES | CtBP-E1A blk | gsp antagonist | gsp agonist | Menin-MLL FL inh | Sfp PPTase inh | ClpP mod | TRPV1 potentiator
CC1CCCCN1C(=O)NC1CC(=O)N(c2ccc3c(c2)OCCO3)C1 (centres undefined) | -13.7 | 8.5% | 2.9% | · | · | -1.5% | 20.2
Cc1cc(NC(=O)CSc2nnc(C3CC3)n2C)no1 | -12.6 | 9.1% | 0.2% | 2.0 | 0.7% | 1.0% | 5.0
CC(OC(=O)CNC(=O)c1ccc(Cl)c(Cl)c1)C(=O)N1CCOCC1 (centres undefined) | 4.6 | 9.6% | -65.5%[inhibitor] | · | · | -2.2% | -3.6
CCOC(=O)C1=C(c2ccccc2)c2ccc(OC)cc2N(S(=O)(=O)C(F)(F)F)C1C(=O)OCC (centres undefined) | 1.6 | -17.9% | · | -1.6 | -2.3% | -21.4% | ·
CC(=O)c1cccc(NC(=O)C2CCN(S(=O)(=O)c3c(C)n[nH]c3C)CC2)c1 | -2.1 | 2.2% | -15.8% | -1.2 | 4.4% | -2.1% | 7.0
COc1ccccc1S(=O)(=O)Cc1ccc(C(=O)NCc2cccnc2)o1 | 8.1 | -0.1% | -18.1% | 3.4 | 25.2% | 2.3% | -2.3
CN(C)c1ccc(/C=C/C(=O)c2ccccc2)cc1[N+](=O)[O-] | 2.2 | -3.5% | -5.5% | 2.0 | -14.7% | -2.4% | 2.2
COc1ccc2[nH]c3c(c2c1)CCN1C(=O)N([C@@H](C)C(=O)NCc2ccccc2OC)C(=O)[C@]31C | -5.0 | -9.8% | · | -5.8 | 11.3% | -0.8% | -2.9
CCCC(=O)C1=C(O)C(C(=O)OC)C(C)(C)CC1=NCCc1ccccc1 (centres undefined) | 0.0 | -3.7% | -51.5%[inhibitor] | 2.4 | -1.1% | · | -3.9
COc1ccc(C(=O)C2CCN(C(=O)c3ccco3)CC2)cc1 | 7.5 | -6.1% | 19.8% | -0.5 | 0.3% | 0.9% | 15.0
O=C(Cn1cnc2cc([N+](=O)[O-])ccc2c1=O)NC(c1ccccc1)c1ccccc1 | -6.2 | -0.7% | 10.2% | 8.2 | -1.5% | -3.1% | -2.8
CC(=O)c1ccc(NC(=O)C2(c3ccccc3)CCOCC2)cc1 | ? | -16.7% | -36.6%[inhibitor] | 1.3 | 9.3% | 1.2% | 1.7
Cc1cc(C)cc(-n2ncc3c2CCCC3NC(=O)CCN2Cc3ccccc3C2=O)c1 (centres undefined) | -0.1 | -6.4% | 8.4%[15.4 µM] | · | 8.4% | -3.4% | 20.9
N#CC1=C2SCN(Cc3ccccc3)CN2C(=O)CC1c1cccs1 (centres undefined) | -7.6 | 6.0% | ? | 13.4 | 1.12µM* | -0.6% | ·
COc1cc(C)nn1-c1ccc(Cl)cc1 | 9.3 | 11.1% | 0.0%[15.4 µM] | -2.5 | 7.8% | -21.5% | -10.9
CCOC(=O)c1ccc(NC(=O)NNC(=O)CCc2ccc(OC)cc2)cc1 | -4.1 | 4.2% | 11.5% | -2.6 | 5.5% | -0.5% | -2.1
Cc1nn(-c2ccccc2)c(C)c1/C=C1\C(=O)N(C)C(=S)N1C | -1.0 | -10.7% | -49.3%[inhibitor] | 1.3 | -0.1% | · | -25.5
Cc1ccccc1NC(=O)c1ccc(CN2CC(=O)N3CCCCC3C2=O)cc1 (centres undefined) | 6.1 | 11.1% | -14.2% | -0.6 | 5.5% | 0.4% | -7.2
C=CCc1cccc(OC)c1OCCOCCNCCO | -2.3 | 8.6% | 11.6% | 3.2 | -14.3% | 1.8% | -1.6
Brc1ccc(N=Nc2ccc3ccccc3n2)cc1 | -12.1 | 2.6% | 0.1%[15.4 µM] | -0.3 | ? | · | ·
CCc1ccc(N(CC(=O)Nc2ccc(OC)cc2OC)S(C)(=O)=O)cc1 | 0.2 | 0.1% | 9.6% | 1.3 | 2.2% | -2.3% | -15.0
COc1ccc(C)cc1NC(=O)COC(=O)CCC(=O)c1cccs1 | 10.1 | 12.0% | -33.2% | · | · | 0.1% | -8.4
O=C(CN(C1CCCCC1)S(=O)(=O)c1ccccc1)NCC1CCCO1 (centres undefined) | -10.1 | 9.1% | -5.6%[15.4 µM] | -1.3 | 16.2% | · | 1.5
CC(C)(C)OC(=O)CN1C(=O)S/C(=C\c2ccc(-c3cccc(C(=O)O)c3)o2)C1=O | · | · | · | ? | 6.7% | · | -0.4
COc1ccc(C(C)=O)cc1CN1C(=O)NC2(CCCCC2)C1=O | 8.8 | 3.2% | -25.1% | -0.1 | 10.2% | -1.1% | -9.6
COCCc1nnc(NC(=O)C23CC4CC(CC(C4)C2)C3)s1 | -3.4 | 10.3% | 7.4%[15.4 µM] | -3.4 | 4.1% | 0.1% | 11.6
Cc1ccccc1NC(=O)c1c(-c2ccccc2)noc1C | 2.7 | -11.4% | 0.0% | 4.2 | 11.8% | -1.0% | 23.7
O=C(O)CSc1nc(-c2ccccc2)nc2c1CCCC2 | 1.3 | -16.0% | 26.2% | 1.2 | 19.5% | 0.4% | -2.4
NC(=O)c1cc2cc(Br)ccc2o/c1=N/NC(=O)c1cccc(F)c1 | -18.9 | -0.8% | 4.0% | 5.5 | -0.9% | -2.4% | -2.1
CCCCC(=O)Nc1ccc(NC(=O)c2ccc(C)c([N+](=O)[O-])c2)cc1OC | 11.9 | -7.9% | 14.7% | 3.8 | 9.6% | ? | -3.7
Cc1sc2nc(SCC(=O)NCc3ccco3)n(CCc3ccccc3)c(=O)c2c1C | -1.6 | ? | 2.3% | 1.5 | -9.4% | -1.6% | -0.9
COC(=O)COc1c(Cl)cc(C(c2c(C)[nH][nH]c2=O)c2c(C)[nH][nH]c2=O)cc1OC | -19.6 | 5.6% | -1.8%[15.4 µM] | -10.7 | -7.5% | · | -4.5
COc1ccc(NC(=O)CSc2ccccc2)cc1S(=O)(=O)N1CCOCC1 | -1.1 | 5.0% | -9.6%[15.4 µM] | · | -0.4% | -1.9% | 14.5
O=[N+]([O-])c1ccc(N/N=C/c2sc(N3CCOCC3)nc2-c2ccccc2)c(S(=O)(=O)Nc2ccccc2Cl)c1 | · | 3.98µM* | -106.6%[inhibitor] | ? | 9.9% | -0.3% | 23.0
CC1(C(=O)OCC(=O)Nc2ccccc2)CC1(Cl)Cl (centres undefined) | -5.0 | 7.7% | -13.1%[15.4 µM] | 1.4 | 12.5% | 0.6% | -2.4
COc1cc(OC)nc(S(C)(=O)=O)n1 | 14.3 | 5.4% | -8.7%[15.4 µM] | 0.4 | 23.2% | 0.4% | -2.0
CCOC(=O)c1cc(S(=O)(=O)Nc2ccc(F)cc2F)cn1C | -3.2 | 6.1% | 18.5% | · | 7.9% | · | 2.5
CC(C)CCc1noc(CN(CC2CCC2)CC2CCCO2)n1 (centres undefined) | 6.9 | 4.3% | 21.9% | 5.5 | 9.3% | -0.7% | -29.0
O=C(COC(=O)c1ccc(S(=O)(=O)NCc2ccco2)cc1)NCc1ccc(F)cc1 | 0.7 | -17.3% | -43.4%[inhibitor] | · | · | 0.0% | 1.2
COc1ccc(-c2cc(C(=O)N(C)Cc3cccc(OC)c3OC)c3ccccc3n2)cc1OC | -4.0 | 10.3% | -4.8%[15.4 µM] | · | -3.1% | · | 1.2
C/C(=N\Nc1cc(C)nc(-c2ccccc2O)n1)c1ccccc1 | 2.3 | -8.5% | -13.1% | 1.0 | -3.5% | · | 9.1
CC(C)(C)NC(=O)c1ccc(NC(=O)c2ccccc2-c2ccccc2C(=O)O)cc1 | · | -6.9% | -4.6% | 2.1 | 16.2% | 0.0% | -7.1
CC(=O)N1CCOc2ccc(S(=O)(=O)NCC3CCC(C(=O)Nc4ncccc4C)CC3)cc21 (centres undefined) | -11.3 | 3.3% | 14.2% | · | 17.7% | -0.4% | -4.2
O=C(N/N=C/C=C/c1ccccc1)c1ccccc1Br | -2.1 | -9.8% | 5.6% | -3.9 | 12.7% | 0.9% | -15.1
CC(C)Oc1cccc(C(=O)C2CCCN(C(=O)c3noc4c3CCCC4)C2)c1 (centres undefined) | 4.0 | -17.5% | 13.5% | -6.3 | 4.7% | · | -2.7
CC(NC(=O)NC(=O)c1cccc([N+](=O)[O-])c1)C1CC1 (centres undefined) | 2.5 | 19.7% | 2.1% | · | 18.1% | 0.0% | -8.8
CN1CCN(c2ccccc2NC(=O)COc2ccccc2)CC1 | 12.8 | 6.5% | 0.9% | 7.3 | 14.1% | -0.4% | -6.9
CN(CC(=O)Nc1ccccc1Cl)C(=O)C1CCN(C(=O)c2ccc(Cl)cc2)CC1 | 4.0 | 19.6% | -40.2%[inhibitor] | · | 10.3% | 1.4% | -3.4
CN(CCNC(=O)C1CCC(=O)N(Cc2cccc(F)c2)C1)CCc1ccccc1 (centres undefined) | 2.8 | 15.4% | 12.5% | · | 24.8% | 1.1% | 1.3
Cc1cc(Nc2cccc(Cl)c2)c2ccccc2n1 | · | -12.2% | 16.0% | 0.3 | 22.6% | -6.9% | 0.0
CCCn1c(SCC(N)=O)nnc1C(C)C | 0.0 | 3.7% | -24.9% | -0.4 | 10.5% | 0.3% | 4.3

Exported with two lines to a compound: entries from further up
Under each structure: CtBP-E1A blk, gsp antagonist, gsp agonist, Menin-MLL FL inh, Sfp PPTase inh, ClpP mod, TRPV1 potentiator
> C/C(=N\Nc1cc(C)nc(-c2ccccc2O)n1)c1ccccc1
 : 2.3, -8.5%, -13.1%, 1.0, -3.5%, ·, 9.1
> CC(C)(C)NC(=O)c1ccc(NC(=O)c2ccccc2-c2ccccc2C(=O)O)cc1
 : ·, -6.9%, -4.6%, 2.1, 16.2%, 0.0%, -7.1
> CC(=O)N1CCOc2ccc(S(=O)(=O)NCC3CCC(C(=O)Nc4ncccc4C)CC3)cc21 (centres undefined)
 : -11.3, 3.3%, 14.2%, ·, 17.7%, -0.4%, -4.2
> O=C(N/N=C/C=C/c1ccccc1)c1ccccc1Br
 : -2.1, -9.8%, 5.6%, -3.9, 12.7%, 0.9%, -15.1
> CC(C)Oc1cccc(C(=O)C2CCCN(C(=O)c3noc4c3CCCC4)C2)c1 (centres undefined)
 : 4.0, -17.5%, 13.5%, -6.3, 4.7%, ·, -2.7

Screening data as filed in PubChem.
